Source: PubChem BioAssay (several laboratories)
YopH PTP inh – inhibitors of Yersinia enterocolitica YopH tyrosine phosphatase | fluorescence Ex485/Em525 | inhibition, %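 (about 10 µM by stock and volumes)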 | 140,000 tested, 0.16% active | AID 898;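 active = inhibition of 50% or more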;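 note: controls were vehicle for no effect and minimum signal wells for full effect; inactives centre near -20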
Mtb betalactam – beta-lactam sensitization of Mtb H37Rv | M. tuberculosis H37Rv growth with meropenem, percent inhibition; hits of this screen are not shown here | inhibition, % at 25 µM | 330,000 tested, 0.27% active | AID 434955;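 active = about 74% or more and at least 40 points above the plate without the antibiotic, then above 30% in a dose series; inconclusive = first-round hits that could not be retested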;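 note: growth measured after seven days incubation then overnight dye step; 0% = bacteria only wells and 100% = bacteria with antibiotic; twin plates without the antibiotic show which effects depend on it; some results filed as inactive read as strong as hits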
Mtb growth – M. tuberculosis H37Rv growth inhibitors, H37Rv strain (AID 1626); M. tuberculosis H37Rv growth inhibition; higher % means a stronger effect; inhibition, % at 10 µM, or IC50 in µM where a hit was titrated; 220,000 tested, 0.95% active;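 active = confirmed in a dose series; inconclusive = inhibition above 80% but not taken into the dose series; inactive = below 80% or under 30% at every dose of the series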;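 note: bacteria incubated seven days before Alamar blue readout; 0% = bacteria only wells and 100% = bacteria with antibiotic wells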
Arbovirus inh – blocks arbovirus infection | arbovirus infection cell-based antiviral screen | 200,000 tested, 0.37% active | AID 1251 | inhibition, % at 10 µM;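 active = inhibition from about 30%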;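 note: bluetongue infection of BSR cells; cell survival read as ATP light after 72 h; 0% = infected wells without compound and 100% = uninfected wells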
RecA intein inh – inhibitors of M. tuberculosis RecA intein splicing | 290,000 tested, 0.75% active | cell-free RecA intein splicing, fluorescence | P9WHJ3 | AID 2221 | inhibition, %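 (about 9 µM by stock and volumes)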; in the data active = inhibition above about 30%; inconclusive = no clear call, values can overlap the other calls;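 note: 0% = vehicle wells and 100% = reference inhibitor control wells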
Target sequence (P9WHJ3 whole entry, looked up): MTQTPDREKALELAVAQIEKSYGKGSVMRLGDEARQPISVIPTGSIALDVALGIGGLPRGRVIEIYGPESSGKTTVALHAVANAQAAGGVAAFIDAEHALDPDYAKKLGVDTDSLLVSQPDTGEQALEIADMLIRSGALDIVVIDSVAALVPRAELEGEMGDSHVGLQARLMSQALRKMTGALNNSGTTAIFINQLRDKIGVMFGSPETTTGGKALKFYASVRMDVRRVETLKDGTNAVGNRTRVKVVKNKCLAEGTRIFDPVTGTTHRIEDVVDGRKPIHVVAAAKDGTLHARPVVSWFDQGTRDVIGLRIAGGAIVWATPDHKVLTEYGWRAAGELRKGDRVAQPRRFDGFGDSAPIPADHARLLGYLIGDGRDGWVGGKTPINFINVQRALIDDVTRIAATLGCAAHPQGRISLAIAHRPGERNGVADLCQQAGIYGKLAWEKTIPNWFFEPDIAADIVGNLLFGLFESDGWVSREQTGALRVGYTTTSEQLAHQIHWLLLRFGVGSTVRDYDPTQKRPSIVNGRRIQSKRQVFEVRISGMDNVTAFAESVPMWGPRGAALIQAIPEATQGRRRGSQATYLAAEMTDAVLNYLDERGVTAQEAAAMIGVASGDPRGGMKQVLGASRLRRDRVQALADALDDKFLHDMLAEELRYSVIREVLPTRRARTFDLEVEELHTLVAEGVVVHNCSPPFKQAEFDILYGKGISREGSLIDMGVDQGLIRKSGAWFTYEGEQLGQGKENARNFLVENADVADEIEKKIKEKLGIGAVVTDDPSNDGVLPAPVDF
Arbovirus inh repeat – further read-out of Arbovirus inh, marked with its call; inhibition, %; measured here: 10K subset replicate screen; many hits read low in the repeat;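 first of two repeat runs on a subset; 0% = infected and 100% = uninfected wells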
* hit, by the source's call; ? = inconclusive; . = not tested or not shown.

SMILES	YopH PTP inh	Mtb betalactam	Mtb growth	Arbovirus inh	RecA intein inh	others
COC(=O)C(C)Sc1nnc(Cc2cc(=O)[nH]c(=O)[nH]2)n1-c1cccc(OC)c1 (centres undefined)	-47	2	-12%	7	.	Arbovirus inh repeat=3
CCC(Sc1nc2ccc(N)cc2s1)C(=O)Nc1nccs1 (centres undefined)	0	68	-3%	-10	-1.7
CC(C)CCNC(=O)C(NS(=O)(=O)c1ccc2c(c1)c(=O)n(C)c(=O)n2C)c1ccccc1 (centres undefined)	-65	-4	.	-16	-3.3
Cc1[nH]c(=O)[nH]c(=O)c1S(=O)(=O)N1CCN(c2cccc(Cl)c2)CC1	-19	-2	1%	-4	-15
O=C(Nc1nnc(-c2ccncc2)o1)c1ccc2ccccc2c1	.	?	.	.	-0.3
CCCC(=O)Nc1ccc(C(=O)Nc2nc(CC(=O)OCC)cs2)cc1	-6	7	-3%	-9	-3.0
OC(COc1ccc(Br)cc1)Cn1ccnc1 (centres undefined)	.	3	.	.	1.4
CCOc1ccc(C)cc1S(=O)(=O)Nc1ccc(Cl)cn1	-24	0	-8%	-3	-11
C/C(=N/NC(=O)Cc1cccc2ccccc12)c1cccs1	-32	7	8%	3	9.2
COc1ccc(OC)c(NC(=O)CSc2nnc3ccc(-c4ccccn4)nn23)c1	.	-13	.	.	0.2
CC(=O)c1ccccc1OCCCN1CCCCC1	-8	-16	-5%	2	0.4
Cc1oc2c(CN3CCCCC3C)c(O)ccc2c(=O)c1-c1ccc(Br)cc1 (centres undefined)	.	3	.	.	-3.8
NS(=O)(=O)c1ccc(-n2nncc2-c2ccco2)cc1	.	-2	.	.	-1.5
N#Cc1c(C(F)(F)F)cc(-c2cccc(Cl)c2)[nH]c1=O	2	-12	-9%	42*	-35
CCOC(=O)c1cc(C)n(Cc2ccc(OCC)c(OC)c2)c1C	-5	-2	-1%	0	5.7
CC(=O)Oc1ccc(NC(=O)Cc2ccccc2)c(C(=O)O)c1	.	4	4%	-7	-4.6
COc1cc(NC(=S)N2CCCC(CO)C2)cc(OC)c1 (centres undefined)	.	4	8%	-1	-2.2
Cc1[nH]n(-c2ccccc2)c(=O)c1N=Nc1c(O)cc(S(=O)(=O)N(C)C)c2ccccc12	.	16	.	.	13
CCN(CC)C(=O)C(C)OC(=O)COc1ccc(Cl)cc1C (centres undefined)	-29	-1	-5%	3	2.4
Cc1ccc(NC(=O)CC2S/C(=N/N=C3\CCCc4ccccc43)NC2=O)cc1 (centres undefined)	-18	0	53%	11	-0.2
Cc1ccc(N2CC(C(=O)NCCS(=O)(=O)N3CCN(c4ccccc4F)CC3)CC2=O)cc1 (centres undefined)	.	2	.	.	-0.3
Nc1nc(SCC(=O)Nc2cc(C(F)(F)F)ccc2N2CCOCC2)n[nH]1	.	-5	0%	-3	4.4
CC(C)OC(=O)NCCOC(=O)Nc1ccc(Cl)c(Cl)c1	-66	-2	62%	-12	5.6
CCN1C(=O)[C@H]2[C@@H](c3ccc(-c4ccc(C(C)=O)cc4)cc3)N3CCC[C@@]3(C(=O)OC)[C@H]2C1=O	.	-5	.	.	-1.1
CCCCCn1c(=O)c(C(=O)Nc2ncccc2C)c(O)c2ccccc21	.	100	.	.	-1.5
Cc1c(C(=O)NCCSCc2c(F)cccc2Cl)cnn1-c1ccc(Cl)cc1	.	62	9%	.	17
CCCCCC(O)(CCN1CCCCC1)c1ccc(OCC)cc1 (centres undefined)	.	1	4%	6	16
CCOC(=O)c1ccc(N2C(=O)C3C(C2=O)C(C(=O)c2ccc(Cl)cc2)N2CCCC32)cc1 (centres undefined)	-22	45	.	9	-1.0
COc1cc(/C=C/C(=O)N2CCCC2)cc(OC)c1OC	-12	-7	-9%	-7	0.1
CCOC(=O)CSc1ccc2ccccc2n1	.	19	0%	5	-0.1
CCOC(=O)c1ccc(-c2cccc(C(F)(F)F)c2)nc1C	-23	6	2%	2	2.0
Cn1cnc(S(=O)(=O)N2CCc3ccccc32)c1	-3	-5	8%	2	-0.6
O=C1CC(c2ccccc2Cl)c2c(sc3c(=O)[nH]c(CCl)nc23)N1 (centres undefined)	.	44	3%	.	8.7
CN(Cc1ccco1)C(=O)c1cc2c(s1)-c1ccc(Cl)cc1S(=O)(=O)C2	.	4	.	.	0.3
Cc1cc(Cl)ccc1NC(=O)c1ccc2c(c1)CCN2S(C)(=O)=O	.	0	.	.	-1.0
COc1ccc(C(=O)NC2=C(C#N)CCC2)cc1OC	-18	-4	3%	-7	-1.2
O=C(c1ccco1)N(CC1CCCO1)c1nc(-c2ccccc2)cs1 (centres undefined)	10	2	11%	-15	12
CC(=Nc1cccc(O)c1)c1sc2ccccc2c1O	-44	14	5%	8	-9.9
CN(C)CCCN(C(=O)CCS(=O)(=O)c1ccccc1)c1nc2cc3c(cc2s1)OCO3	.	6	.	.	1.2
O=C1OCc2ccc(NS(=O)(=O)c3ccc(C(F)(F)F)cc3)cc21	.	6	-4%	.	0.2
COc1ccccc1C(=O)N/N=C(\C)CC(=O)Nc1ccc(Cl)cn1	.	-3	-7%	.	-0.1
O=C(O)CC1(CC(=O)Nc2cccc(C(F)(F)F)c2)CCCC1	.	1	1%	.	-0.8
CSc1nsc(SCC(=O)Nc2nc3ccccc3s2)n1	-4	16	52%	10	-2.6
Cc1cc(C)cc(Nc2ncc3c(n2)CCCC3=O)c1	-34	-9	8%	2	-3.1
Cc1nc2sc3c(c2c(=O)o1)CCCC3	-25	62	7%	10	2.0

An excerpt from above in order of length of the SMILES, largest number first:
SMILES	YopH PTP inh	Mtb betalactam	Mtb growth	Arbovirus inh	RecA intein inh	others
O=C1CC(c2ccccc2Cl)c2c(sc3c(=O)[nH]c(CCl)nc23)N1 (centres undefined)	.	44	3%	.	8.7
O=C1OCc2ccc(NS(=O)(=O)c3ccc(C(F)(F)F)cc3)cc21	.	6	-4%	.	0.2
Cc1nc2sc3c(c2c(=O)o1)CCCC3	-25	62	7%	10	2.0

(cont.)
SMILES	YopH PTP inh	Mtb betalactam	Mtb growth	Arbovirus inh	RecA intein inh	others
O=C(COC(=O)c1ccc2c(=O)n3c(nc2c1)CCC3)Nc1ccccc1F	-3	-4	7%	-13	-1.3
COc1cc(NS(=O)(=O)c2ccc(N)cc2)nc(OC)n1	-37	58	15%	3	1.8
CCOC(=O)c1c(C)c(-c2ccccc2)n(CC(=O)NCCCN(CC)CC)c1C	.	-1	-4%	-14	0.1
NS(=O)(=O)c1ccc(CNC(=O)c2cc(-c3cccnc3)nc3ccc(Cl)cc23)cc1	.	-7	.	.	1.7
O=C(CSc1nc(O)c(Cc2ccccc2)c(=O)[nH]1)N1CCOCC1	.	-4	-1%	.	-0.2
O=C1C2CCCN2C(c2cccc(F)c2)N1c1cccc(Cl)c1 (centres undefined)	-50	-1	6%	13	0.2	Arbovirus inh repeat=-3
CN1CCCN(C(=O)c2ccccc2Cl)CC1	.	-7	.	.	-0.8
Cc1ccc(SCCNS(C)(=O)=O)cc1	-36	-1	-3%	7	0.0
O=C(NCc1ccc(F)cc1)c1ccc(CS(=O)Cc2ccccc2Cl)o1 (centres undefined)	.	-3	.	.	-1.3
Cc1ccc(S(=O)(=O)CCC(=O)OCC(=O)NCC(=O)Nc2cccc(C)c2C)cc1	.	-26	.	.	2.7
C=CCn1c(NC(=O)CC)c(C(=O)OCC)sc1=S	-2	-8	.	-9	-0.4
CS(=O)(=O)N1Cc2ccccc2CC1C(=O)Nc1ccccc1C(N)=O (centres undefined)	11	-11	1%	0	2.8	Arbovirus inh repeat=4
CC(C)c1ccc(N(CC(=O)NCCc2ccccc2)C(=O)c2csnn2)cc1	.	6	.	.	-1.4
O=C(NCCc1ccccc1)c1ccccc1F	.	-2	-4%	-12	14
CCOC(=O)C(Cc1ccc(NC(=O)/C(=C/c2ccc(OC(C)=O)cc2)NC(C)=O)cc1)N1C(=O)c2ccccc2C1=O (centres undefined)	-27	-8	-3%	17	14

Reprinted from the part before: 2 entries, followed by the next part.
SMILES	YopH PTP inh	Mtb betalactam	Mtb growth	Arbovirus inh	RecA intein inh	others
O=C(NCCc1ccccc1)c1ccccc1F	.	-2	-4%	-12	14
CCOC(=O)C(Cc1ccc(NC(=O)/C(=C/c2ccc(OC(C)=O)cc2)NC(C)=O)cc1)N1C(=O)c2ccccc2C1=O (centres undefined)	-27	-8	-3%	17	14
CCN(CC)CC(O)COC(c1ccccc1)c1ccccc1 (centres undefined)	.	-15	-2%	.	0.7
CN(C(=O)CSc1nnc(-c2ccco2)n1N)C1CCCCC1	.	-12	1%	3	-0.7
O=C1CS/C(=N\N=C\c2ccco2)N1c1ccccc1	.	4	.	.	-3.0
CCCn1cc(SCC(=O)NC2CCCC2)c2ccccc21	.	2	.	.	-0.1
CCC(Cc1ccccc1)NS(=O)(=O)c1ccc2c(c1)NC(=O)CO2 (centres undefined)	.	11	.	.	-0.1
CCc1cccc2c(C(=O)COC(=O)c3ccccc3)c[nH]c12	-21	-4	8%	11	-0.6
Cc1cccc(C)c1Nc1ncnc(N)c1[N+](=O)[O-]	-9	2	.	1	-0.1
COc1ccc(CC2(CO)CCN(Cc3cnn(C)c3)CC2)cc1	.	.	-8%	-4	0.5
COc1cccc2[nH]c(C(=O)NCc3ccccc3)cc12	.	0	.	.	-1.7
CCN(CC)c1nc2ccccc2c(N)c1-c1ccccc1	-24	-7	12%	-23	-3.0
CCOC(=O)Cc1csc(NC(=O)CN2CCN(CC)CC2)n1	.	-5	.	.	0.7
Cc1cc(C)c(CN2CCN(Cc3ccc(C)o3)C(CCO)C2)c(-n2cccn2)c1 (centres undefined)	.	2	-1%	-20	2.7
C=CCn1c(Cc2cccs2)nnc1SC/C=C/c1ccccc1	-12	-5	-2%	-3	4.0
Cc1c(N=Cc2ccc(Br)s2)cccc1[N+](=O)[O-]	-28	6	-7%	1	2.0
COCCn1c(C)cc(C(=O)Cn2nc(C(=O)O)c3ccccc3c2=O)c1C	.	-1	-9%	1	3.9
C=CCC1NS(=O)(=O)OC(CCc2ccccc2)C1O (centres undefined)	.	-5	.	.	1.0

6 compounds drawn at random from those above:
SMILES	YopH PTP inh	Mtb betalactam	Mtb growth	Arbovirus inh	RecA intein inh	others
C=CCC1NS(=O)(=O)OC(CCc2ccccc2)C1O (centres undefined)	.	-5	.	.	1.0
CCC(Cc1ccccc1)NS(=O)(=O)c1ccc2c(c1)NC(=O)CO2 (centres undefined)	.	11	.	.	-0.1
C=CCn1c(Cc2cccs2)nnc1SC/C=C/c1ccccc1	-12	-5	-2%	-3	4.0
Cc1c(N=Cc2ccc(Br)s2)cccc1[N+](=O)[O-]	-28	6	-7%	1	2.0
CCCn1cc(SCC(=O)NC2CCCC2)c2ccccc21	.	2	.	.	-0.1
COCCn1c(C)cc(C(=O)Cn2nc(C(=O)O)c3ccccc3c2=O)c1C	.	-1	-9%	1	3.9

Copied from above for reference:
SMILES	YopH PTP inh	Mtb betalactam	Mtb growth	Arbovirus inh	RecA intein inh	others
CCC(Cc1ccccc1)NS(=O)(=O)c1ccc2c(c1)NC(=O)CO2 (centres undefined)	.	11	.	.	-0.1
CCc1cccc2c(C(=O)COC(=O)c3ccccc3)c[nH]c12	-21	-4	8%	11	-0.6
Cc1cccc(C)c1Nc1ncnc(N)c1[N+](=O)[O-]	-9	2	.	1	-0.1
COc1ccc(CC2(CO)CCN(Cc3cnn(C)c3)CC2)cc1	.	.	-8%	-4	0.5

Not all compounds are listed; rates above refer to the full screens.
